# ALR H2O2 inh: inhibitors of human sulfhydryl oxidase ALR; P55789; purified ALR, DTT oxidation, H2O2 HRP-luminol luminescence; inhibition, % (no concentration beside the values); 290,000 tested, 3.8% active;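 active = mean and each replicate at 75% or more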;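 note: stock transfer was 7.5 nL into about 7.5 µL; 0% = neutral wells and 100% = wells with inactivated enzyme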
# LANA-H2A inh: blocks KSHV LANA binding to histone H2A/H2B | cell-free LANA-H2A/H2B peptide, fluorescence polarization | inhibition, % (test concentration not listed) | 320,000 tested, 0.6% active; in the data active = inhibition mostly above about 10%, no sharp cut-off; inactive = mostly below about 6.7%;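 note: stock transfer was 7.5 nL into about 10 µL; 0% = median of vehicle wells and 100% = median of positive control wells; one replicate is shown; the record names a cut of 25% in any replicate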
# UCH37 DUB inh: human UCH37 deubiquitinating enzyme inhibition. inhibition, % (test concentration not listed). purified proteasome/UCH37, Ub-AMC cleavage fluorescence. 330,000 tested, 0.33% active. AID 588478;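 active = mean of two replicates above 20%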;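 note: 0% = compound-free wells with enzyme and 100% = wells lacking proteasome; stock transfer was 100 nL into about 20 µL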
#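 Material: human UCH37 enzyme supplied as purified proteasome complex / Amount: 0.15 nM proteasome as dispensed / Buffer or medium: pH 7.4 Tris-HCl (50 mM) with ovalbumin, ATP-MgCl2, DTT / Times: preincubation 30 min, reaction 25 min, room temperature / Technique: AMC fluorescence from Ub-AMC cleavage, excitation 355 nm, emission 460 nm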
# FGF22 binding: binders of recombinant human FGF22 by thermal shift; Q9HCT0; SYPRO orange fluorescence; percent of sucrose octasulfate shift, DMSO zero; calls only at 9.99 µM; 340,000 tested, 1.5% active;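 active = melting point raised past a set limit in the mean and every replicate; three in four hits are not shown here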
# Target sequence (Q9HCT0 whole entry, looked up): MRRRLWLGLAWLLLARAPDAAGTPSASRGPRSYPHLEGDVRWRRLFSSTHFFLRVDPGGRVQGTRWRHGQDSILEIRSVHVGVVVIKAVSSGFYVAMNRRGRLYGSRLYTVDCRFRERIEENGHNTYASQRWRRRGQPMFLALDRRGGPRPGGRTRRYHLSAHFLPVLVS
# HNF4A DNA FP: change in binding of human HNF4 alpha to DNA; P41235; HNF4a-FITC DNA binding, fluorescence polarization, 1 h; activity change, % at 10 µM; 360,000 tested, 0.3% active; AID 1224865; in the data active = activity change above about 30%, passing the limit was not always enough;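 note: controls were the assay level and a saturating level of protein; the project sought stronger binding though the title names inhibitors; some compounds called inactive have numbers as strong as hits; positive values seem to mean higher polarization but the record does not say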
# Target sequence (P41235 whole entry, looked up): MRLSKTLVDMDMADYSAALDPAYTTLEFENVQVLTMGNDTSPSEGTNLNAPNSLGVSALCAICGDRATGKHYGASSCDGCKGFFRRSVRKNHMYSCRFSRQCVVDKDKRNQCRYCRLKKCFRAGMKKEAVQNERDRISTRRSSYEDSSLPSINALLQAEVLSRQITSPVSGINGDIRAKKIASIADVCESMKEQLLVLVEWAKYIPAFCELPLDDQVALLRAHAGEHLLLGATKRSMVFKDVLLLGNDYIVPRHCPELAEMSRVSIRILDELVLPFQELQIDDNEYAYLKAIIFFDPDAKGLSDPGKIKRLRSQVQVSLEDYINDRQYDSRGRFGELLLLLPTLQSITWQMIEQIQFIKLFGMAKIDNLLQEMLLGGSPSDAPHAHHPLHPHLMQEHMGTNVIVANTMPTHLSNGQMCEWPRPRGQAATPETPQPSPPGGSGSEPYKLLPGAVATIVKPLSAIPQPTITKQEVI
# Beta2AR agonist: agonists of human beta-2 adrenergic receptor inducing internalization; response, % (concentration not given with the values); Am2.2-beta2AR cells, FAP receptor internalization, flow cytometry; reference of the scale not given here; 340,000 tested, 0.43% active; AID 504454;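 active = response above a set limit, near 3 SD of response in nonfluorescent compounds, cut at about 42% in these data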;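 note: stock transfer was 100 nL into about 11 µL; a reference agonist was the positive control; negative values mostly stem from fluorescent compounds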
# Target sequence (P07550 whole entry, looked up): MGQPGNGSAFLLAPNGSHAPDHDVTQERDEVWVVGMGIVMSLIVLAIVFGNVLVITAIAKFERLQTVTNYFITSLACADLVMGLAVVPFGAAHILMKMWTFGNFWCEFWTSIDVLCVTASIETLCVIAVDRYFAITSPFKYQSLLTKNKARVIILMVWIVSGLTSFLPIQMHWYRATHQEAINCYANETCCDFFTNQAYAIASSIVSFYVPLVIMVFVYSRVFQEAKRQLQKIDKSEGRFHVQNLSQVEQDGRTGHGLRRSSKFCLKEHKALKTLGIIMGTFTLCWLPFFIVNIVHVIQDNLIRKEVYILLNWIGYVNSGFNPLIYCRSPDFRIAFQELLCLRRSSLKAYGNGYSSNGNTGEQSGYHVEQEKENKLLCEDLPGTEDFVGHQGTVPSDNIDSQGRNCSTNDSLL
# E coli growth: blocks Escherichia coli growth. OD600, 23 h; stronger effect = lower value. OD600 absorbance (concentration not given with the values). 330,000 tested, 0.21% active;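 active = OD600 absorbance below the run mean of sample wells minus 3.6 SD, in any replicate, cut at about 0.56 in these data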;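 note: stock transfer was 300 nL into about 60 µL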
# An asterisk follows results filed as active; i = inactive; x = no result given. A portion of the library. The share of hits here may be higher or lower than overall.
FGF22 binding,HNF4A DNA FP,UCH37 DUB inh,E coli growth,Beta2AR agonist,LANA-H2A inh,ALR H2O2 inh,Compound
x,-2.6,1.3,0.73,4,3.1,1,Cc1ccccc1NC(=S)N(Cc1cccs1)C1CCCC1
i,-59,-75,0.71,-1,x,x,O=C(O)c1ccc2nc(-c3ccco3)c(-c3ccco3)nc2c1
i,-1.0,5.0,0.69,-19,0.3,-23,S=C(NCCc1ccccc1)N1CCN(Cc2ccccc2)CC1
x,-12,6.7,0.66,-1,3.2,-10,O=C(O)c1ccc(N2Cc3ccccc3C2)cc1O
x,1.6,4.6,0.69,-1,1.2,-12,O=C(NCC(=O)N(Cc1cccs1)C(C(=O)NC1CCCC1)c1cccnc1)c1ccco1 (stereo unspecified)
x,-1.4,4.4,0.8,-3,-2.2,-12,CCC(=O)Nc1nnc(CSCc2ccc(F)cc2)s1
i,2.8,12,0.7,99*,0.6,6,CN(CCO)c1cc(Sc2nc3ccccc3s2)c2nonc2c1[N+](=O)[O-]
i,-2.4,-97,0.63,-7,3.2,-4,CCc1cc(=O)oc2cc(C)cc(OCC(=O)NCCCN3CCOCC3)c12
i,5.8,5.7,0.65,16,x,x,CSc1nsc2nc(=O)c(/C=C3\C(C)=Nc4ccccc43)c(N)n12
x,-0.1,x,x,-17,1.5,4,C/C(=N\Nc1cc(C(F)(F)F)ccc1Cl)c1ccccc1O
x,1.0,-0.3,0.68,-5,-3.6,-1,COc1cc(C(=O)NCc2cn3ccsc3n2)cc(OC)c1OC
x,-3.3,3.8,0.76,14,x,x,CCCNS(=O)(=O)c1ccc(CCC(=O)Nc2cc(Cl)ccc2Oc2ccccc2)cc1
x,-2.4,5.6,0.73,-4,1.0,x,O=C(COC(=O)c1ccccc1C(=O)c1ccccc1)Nc1ccc(SC(F)F)cc1
i,2.0,0.4,0.71,-4,2.0,2,CC(=O)C1=C(C)NC(C)=C(C(C)=O)C1c1ccccc1
x,1.5,5.0,0.73,-1,2.0,-8,Cc1ccnc(SCC(=O)N2CCC(C(N)=O)CC2)n1
i,0.7,-3.7,0.68,10,-4.6,-5,Cc1cc(Cl)ccc1OCc1cn2cccnc2n1
x,2.0,2.5,0.67,18,1.6,-10,CC(C)N(Cc1nc(-c2ccccc2)no1)C(=O)CN(C)S(=O)(=O)c1ccccc1
x,-0.9,3.7,0.67,6,-6.8,-1,CC(C)CN(CC(C)C)S(=O)(=O)N1CCC(C(=O)N2CCc3ccccc3C2)CC1
x,-1.1,1.7,0.78,0,-1.4,27,Cc1ccc(N2CCN(C(=O)c3ccccc3NC(=O)C3CC=CCC3C(=O)O)CC2)cc1 (stereo unspecified)
i,-2.1,1.3,0.69,7,-3.5,-3,CC(C)C[C@H](NC(=O)C1(c2ccccc2)CCN(C(=O)[C@H]2CSCN2C(=O)OC(C)(C)C)CC1)C(=O)O
i,2.2,3.3,0.71,-1,-6.3,x,COc1ccc([C@@H]2CC=C(C(=O)O)[C@H](c3ccc(C)cc3)N2S(=O)(=O)c2ccc(C)cc2)cc1OC
i,4.1,0.5,0.69,-2,-4.4,34,CCC(c1nnnn1Cc1ccc(OC)cc1)N1CCN(c2ccc(OC)cc2)CC1 (stereo unspecified)
x,1.2,-0.8,0.69,0,1.3,9,O=C(O)CCSc1nc2ccccc2c(=O)[nH]1
i,-3.5,x,x,-4,6.8,-3,CC1Cc2cc(S(=O)(=O)NCc3ccccc3)ccc2N1C(=O)C1CC1 (stereo unspecified)
x,-3.2,2.1,0.67,8,-2.6,-3,CCSc1oc(-c2ccco2)nc1S(=O)(=O)c1ccccc1
x,-4.3,-1.0,0.68,-1,-2.8,-3,CCCCOC(=O)/C=C/c1ccc(OC(=O)OC)c(OC(=O)OC)c1
i,-3.5,0.1,0.68,-4,x,x,CCCc1cc(=O)[nH]c(SCC(=O)N(CCC#N)c2ccc3c(c2)OCCO3)n1
x,-3.0,-2.3,0.71,9,-2.8,6,COCC(C)n1c(C)cc(C(=O)CN2C(=O)NC(Cc3c[nH]c4ccccc34)C2=O)c1C (stereo unspecified)
i,-5.8,4.0,0.66,1,-2.5,89*,CS(=O)(=O)n1nc(OC(=O)c2cccs2)cc1N
x,2.5,2.4,0.78,1,4.1,70,O=C(CCCOc1ccccc1)N1CCN(c2ccc(F)cc2)CC1
x,-4.3,x,x,-3,-0.9,-9,Cc1onc(-c2ccccc2)c1C(=O)N/N=C/C(Br)=C/c1ccccc1
i,1.1,5.7,0.68,2,-0.2,x,Cc1ccccc1CSc1[nH]c(=O)ncc1C
i,-2.5,-2.1,0.65,-1,-3.0,70,COc1ccccc1N1CCN(C(=O)CCc2c[nH]c3ccccc23)CC1
i,3.0,0.2,0.71,-9,3.3,1,COc1nc(N)nc2nc[nH]c12
x,4.4,-1.0,0.74,-10,-3.1,-5,O=C(NCc1ccco1)/C(=C/c1cccnc1)NC(=O)c1ccco1
x,-0.4,-0.3,0.69,-5,-3.1,-8,Cc1cccc(-n2ccnc2SCC(=O)N2CCCc3ccccc32)c1C
i,-0.8,0.6,0.71,3,-6.7,-3,CCCN(CCC)CC(O)CN1C(=O)N(CN2C(=O)N(CC(O)CN(CCC)CCC)C(=O)C2(C)C)C(C)(C)C1=O (stereo unspecified)
i,-0.8,11,0.65,5,2.6,10,Cc1sc2nc(CN3CCOCC3)[nH]c(=S)c2c1C
x,-1.0,x,x,17,-0.4,62,COc1ccc(CCCc2nnc(SCC(=O)N/N=C\c3ccc(O)c(OC)c3)o2)cc1C
i,3.1,2.2,0.65,6,-3.0,0,CCn1c(SCC(=O)Nc2ccc(OC)cc2OC)nc2nc3c(cc2c1=O)COC(C)(C)C3
x,2.2,5.0,0.71,0,2.5,0,CC(C)(C)C1CCC(OCC(O)CN2CCN(c3ccccc3)CC2)CC1 (stereo unspecified)
i,4.7,4.3,0.69,-11,-4.2,-10,Cc1nc2scc(-c3ccc(Cl)cc3)c2c(=O)n1N
i,0.7,-4.8,0.67,-4,0.1,3,COC(=O)c1sccc1NC(=O)Nc1cccc(C(C)=O)c1
i,-0.3,5.9,0.69,-3,-4.5,-11,O=C(NCc1csc2ccc(Cl)cc12)Nc1cccc2ccccc12
i,0.7,-0.9,0.67,2,-1.0,1,Cc1cccc(C(=O)NCC(=O)N2CCN(c3ccccn3)CC2)c1
i,3.0,3.3,0.67,-6,2.4,x,Cn1c(CNC(=O)OC(C)(C)C)nnc1SCc1c(Cl)cccc1Cl
i,-2.8,0.6,0.67,-3,-3.4,x,CC(C)Cn1cnc2c1c(=O)n(CC(=O)NN)c(=O)n2Cc1ccccc1
x,0.3,0.7,0.73,-14,-0.8,-1,CCC(=O)N1CCc2cc(S(=O)(=O)CCC(=O)Nc3ccc(CC)cc3)ccc21
i,-0.9,1.0,0.64,-3,-0.2,0,O=C1CCCc2cc(S(=O)(=O)N3CCC(C(=O)NCc4ccccc4)CC3)ccc2N1
x,-3.1,-1.7,0.72,-6,7.2,-9,COc1cc(-c2noc(-c3cccs3)n2)cc(OC)c1OC

# The results go on:
FGF22 binding,HNF4A DNA FP,UCH37 DUB inh,E coli growth,Beta2AR agonist,LANA-H2A inh,ALR H2O2 inh,Compound
i,-1.2,-15,0.71,-3,-6.8,-15,Cc1ccc(C)c(N(C)C(=O)c2cc3c(=O)[nH]c4ccc(C)cc4c3s2)c1
i,6.3,-1.6,0.7,-4,-3.2,-1,O=C1CN(C(=O)NCC(=O)N2CCCC2)c2ccccc2N1
i,-4.8,1.8,0.68,2,x,x,CC(=O)C1C=CC(C)(C(=O)O)C2C=C(C)C(=O)C(C)(O)C12 (stereo unspecified)
i,-0.7,x,x,5,2.1,10,CCC(CC)N1CCN(C(=O)c2cccc(Cl)c2)CC1
i,-0.6,-408,0.69,-1,-24,0,COc1ccc(/C=C/C(=O)Nc2ccc(S(=O)(=O)Nc3cc(C)nc(C)n3)cc2)cc1OC
x,-0.4,-4.7,0.65,2,4.3,6,COc1ccc(OC)c(C(=O)/C=C/c2ccccc2C(F)(F)F)c1
i,-0.9,3.2,0.69,4,6.0,-5,Cc1cc(C)cc(C(=O)NC(=S)Nc2ccc3c(c2)OCCO3)c1
i,5.3,0.6,0.6,2,-11,4,CC1Cc2ccccc2N1C(=O)Cn1cnc2ccccc21 (stereo unspecified)
i,-2.0,-3.3,0.69,-4,-4.3,99*,CCN(CC)CCNc1nc(-c2ccc(OC)cc2)c(-c2ccc(OC)cc2)s1
x,0.9,-1.6,0.7,-4,-3.1,-4,COc1nc(N(C)C)nc(N2CC(=O)N(CCNS(=O)(=O)c3ccc(C)cc3)C2=N)n1
i,-0.8,1.3,0.67,-11,-0.2,-2,CCN1CCN(C(=O)C2CCN(C(=O)Nc3ccccc3)CC2)CC1
x,49*,-0.3,0.74,1,4.6,-10,C=CCn1c(SCc2nc3sc4c(c3c(=O)[nH]2)CCCC4)nc2ccccc2c1=O
i,5.5,2.3,0.77,0,3.3,-8,COc1ccccc1C/C(N)=N/OC(=O)COc1cccc2ccccc12
x,2.1,2.2,0.72,2,0.2,-16,O=C(CC(Cc1ccccc1)C(=O)O)NCCc1ccc2c(c1)OCO2 (stereo unspecified)
x,1.3,1.3,0.74,-10,-4.5,-6,Cc1ccc(C)c(N2CCN(S(=O)(=O)c3ccc4c(c3)oc(=O)n4C)CC2)c1
x,1.2,2.6,0.68,-1,0.7,5,CC(C)n1c(N2CCN(C(=O)c3cccs3)CC2)nc2ccccc21
x,1.6,2.0,0.69,-1,8.3,-4,CC(=O)Nc1cccc(-c2nnc(SCc3ccccc3C#N)n2C)c1
i,3.4,0.3,0.7,0,1.9,-10,CCOc1ccc(NC(=O)COC(=O)c2cc(S(=O)(=O)N3CCCC3)ccc2C)cc1
i,3.2,x,x,1,0.2,3,CC(C)(C)OC(=O)NCCC(=O)N/N=C/c1ccc2nccnc2c1
i,-2.2,0.8,0.65,-1,5.8,-1,CCCOC(=O)c1ccc(NC(=O)C(=O)NCC2CCCO2)cc1 (stereo unspecified)
i,-1.9,2.5,0.66,-2,-3.9,x,NC(=S)NN=C(c1ccccc1)c1ccccc1
i,0.1,x,x,-4,x,x,CC(=O)c1ccc(NS(=O)(=O)c2ccc([N+](=O)[O-])cc2)cc1
x,-0.1,1.7,0.68,11,-2.2,-4,O=C1c2ccccc2C(=O)N1CCn1nc(Cl)nc1Cl
i,1.0,4.8,0.7,1,1.0,x,COC(=O)c1c(-c2ccccc2)c[nH]c1C
i,7.7,0.6,0.69,-3,1.8,-36,CCN(CC)CCNC(=O)c1ccc(Sc2ccc(C)cc2)c(NC(C)=O)c1
i,-4.8,5.0,0.68,5,-2.6,-7,CCNS(=O)(=O)c1ccc(CCC(=O)N2CCC(C)CC2)cc1
i,5.3,-15,0.72,1,-6.7,25,COc1cc(-c2nc3cnccn3c2Nc2ccc(C(C)C)cc2)ccc1O

# Shown with two lines to a compound: 3 of the compounds above.
# Every second line gives: FGF22 binding, HNF4A DNA FP, UCH37 DUB inh, E coli growth, Beta2AR agonist, LANA-H2A inh, ALR H2O2 inh
> CC1Cc2ccccc2N1C(=O)Cn1cnc2ccccc21 (stereo unspecified)
 : i, 5.3, 0.6, 0.6, 2, -11, 4
> CCN(CC)CCNc1nc(-c2ccc(OC)cc2)c(-c2ccc(OC)cc2)s1
 : i, -2.0, -3.3, 0.69, -4, -4.3, 99*
> COc1nc(N(C)C)nc(N2CC(=O)N(CCNS(=O)(=O)c3ccc(C)cc3)C2=N)n1
 : x, 0.9, -1.6, 0.7, -4, -3.1, -4

# 3 compounds picked at random from those above:
FGF22 binding,HNF4A DNA FP,UCH37 DUB inh,E coli growth,Beta2AR agonist,LANA-H2A inh,ALR H2O2 inh,Compound
i,1.1,5.7,0.68,2,-0.2,x,Cc1ccccc1CSc1[nH]c(=O)ncc1C
x,-4.3,x,x,-3,-0.9,-9,Cc1onc(-c2ccccc2)c1C(=O)N/N=C/C(Br)=C/c1ccccc1
i,-0.9,1.0,0.64,-3,-0.2,0,O=C1CCCc2cc(S(=O)(=O)N3CCC(C(=O)NCc4ccccc4)CC3)ccc2N1

# Screens from PubChem BioAssay.
